# Screens from PubChem.
# D2 PAM: positive allosteric modulators of human D2 dopamine receptor; P14416; potentiation, % (no concentration beside the values); 360,000 tested, 0.23% active; DiscoveRx D2 beta-arrestin cells, luminescence, 90 min; 100% = 57 uM dopamine signal; active = potentiation of 50% or more; inconclusive = 30% to 50%; inactive = 30% or less;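 also: compound concentration not given in the record; tested on top of an EC20 dose of dopamine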
# Target sequence (P14416 whole entry, looked up): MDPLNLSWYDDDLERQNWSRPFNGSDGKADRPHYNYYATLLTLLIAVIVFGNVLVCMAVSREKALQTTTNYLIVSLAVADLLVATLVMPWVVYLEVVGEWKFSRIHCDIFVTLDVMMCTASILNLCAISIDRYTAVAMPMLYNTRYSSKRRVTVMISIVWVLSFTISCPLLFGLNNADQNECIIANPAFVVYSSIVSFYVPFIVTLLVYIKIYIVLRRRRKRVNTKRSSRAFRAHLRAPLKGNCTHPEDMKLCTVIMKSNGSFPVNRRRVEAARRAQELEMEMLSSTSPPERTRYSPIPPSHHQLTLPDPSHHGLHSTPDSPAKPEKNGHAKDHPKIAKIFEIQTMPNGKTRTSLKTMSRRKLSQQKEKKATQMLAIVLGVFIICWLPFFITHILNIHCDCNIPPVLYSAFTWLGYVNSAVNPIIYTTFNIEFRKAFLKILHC
#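 PathHunter beta-arrestin assay in DiscoveRx D2 cells. Compounds were added with an EC20 of dopamine (50 nM final) for 90 min at 37 deg C. Luminescence was read 1 h after detection reagent, with 57 uM dopamine as the EC100 control.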
# PINK1 modulator: PINK1 expression modulation | PINK1 immunofluorescence, high-content cytometry, 24 h | Potency, µM (highest dose often 76.6 µM), for the others: at the highest dose activation (PINK1 increase), most hits filed as activators | 410,000 tested, 0.2% active; active = well fitted activation curve with a large enough effect; inconclusive = small, poorly fitted or top-dose-only effect; inactive = flat fitted curve, though single readings scatter; cell line not stated here;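 also: potency is read from the fitted curve at half-maximal effect; % of control where 0% means no effect; nearly all actives have a fitted effect of over 65% in size; a mitochondrial uncoupler was the plate control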
#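 Measures PINK1 amount and localization on or inside mitochondria by immunofluorescence. Stable cells get compounds at 5 concentrations for 24 hours before fixation and staining; CCCP controls included.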
# Six1-Eya2 inh: blocks human Six1 binding to Eya2. AlphaScreen GST-Six1/His-Eya2 binding, biochemical; stronger effect = lower value; control for the full effect not named in the record. Q15475+O00167. AID 651725. activity change, % (test concentration not listed). 360,000 tested, 0.56% active; in the data active = activity change below about -65%; inconclusive = about -30% to -65%; inactive = above about -30%; also: % is scaled to controls: 0 for no effect and ±100 for the full control effect; compound concentration not given in the record
#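 Compounds are tested against tagged Six1 and Eya2 proteins bridged by glutathione donor and nickel acceptor beads; after a one-hour incubation at 37 °C without light, AlphaScreen emission is recorded.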
# Sfp inh: inhibitors of Bacillus subtilis Sfp phosphopantetheinyl transferase; Potency, µM, inactives show max response, negative = inhibition, actives largely listed as inhibitors; Biochemical Sfp PPTase activity, qHTS; 310,000 tested, 3.5% active; active = well fitted inhibition curve with a large enough effect; inconclusive = small, poorly fitted or top-dose-only effect, or another doubt; inactive = no such curve, though single readings can be large or run the other way;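 also: the enzyme is Sfp with the accession as filed and its product quenches rhodamine fluorescence; potency is read from the fitted curve at half-maximal effect; 0% = enzyme reaction without inhibitor and -100% = no enzyme wells; top concentration of the series not given in the record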
#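 Sfp 15 nM + cpd, 15 min RT; start w/ rhodamine-CoA 5 uM, BHQ-2-YbbR 12.5 uM (final); 50 mM Hepes pH 7.6, 10 mM MgCl2, 0.01% NP-40, 0.01% BSA; read 525/598 nm at 0 and 30 min.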
# CtBP-E1A inh: inhibitors of CtBP/E1A interaction; AlphaScreen GST-E1A/His-CtBP binding, 1536-well; stronger effect = lower value; control for the full effect not named in the record; activity change, % (test concentration not listed); 340,000 tested, 0.49% active; in the data active means activity change below about -65%; inconclusive means about -30% to -65%; inactive means above about -30%; also: % is scaled to controls: 0 for no effect and ±100 for the full control effect; compound concentration not given in the record
#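 In 5 uL wells, 23 nL compound meets equimolar GST-E1A and His-CtBP (5X stock 125 nM each) for 2 h, 37 °C. Beads (5X, 50 ug/mL) then 1 h, 37 °C, dark.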
# TRPV1 potentiator: potentiators of human vanilloid receptor 1 (TRPV1); TRPV1-expressing cells, Fluo-8 calcium influx, capsaicin EC20 potentiation; host cell line not named in the record; control for the full effect not named in the record; potentiation, % at 8.33 µM; 320,000 tested, 0.02% active; AID 540277; active means potentiation above 80%; inconclusive means 30% to 80%; inactive means below 30%; also: 0% is about no effect
#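 Fluo-8 calcium influx in TRPV1-expressing cells, kinetic read (ex 480/em 520 nm). Compound added and read 3 min for agonist activity, followed by capsaicin at EC20 final and 2 min further read for enhancement.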
# D2 ag: activates the human D2 dopamine receptor; P14416; DiscoveRx PathHunter D2 beta-arrestin, luminescence, 90 min; 100% = 57 uM dopamine signal; activation, % (test concentration not listed); 360,000 tested, 0.084% active; AID 624465; in the data active = activation above about 40%; inconclusive = about 15% to 40%; inactive = below about 15%; also: compound concentration not given in the record; the text of the record calls up to 30% inactive
#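 DiscoveRx PathHunter D2 beta-arrestin cells (2,100/well) attached overnight, then compound-stimulated 90 min at 37 C in HBSS/10 mM HEPES/0.1% Tween-20 buffer; beta-galactosidase complementation read by luminescence after 1 h at ambient temperature. Dopamine 57 uM final (EC100) as control.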
# The depositor's hits bear a star; ? = inconclusive; / = not tested or not shown; [ ] = remark or other dose. This is a random part of the collection; about 3.7% have a hit in one of these screens.
entry	smiles	D2 PAM	PINK1 modulator	Six1-Eya2 inh	Sfp inh	CtBP-E1A inh	TRPV1 potentiator	D2 ag
1	Cc1c(C(c2ccc(C(=O)O)cc2)c2c(C)n(C)n(-c3ccccc3)c2=O)c(=O)n(-c2ccccc2)n1C	-1	-1.1%	0	9%	7	6	-0.4
2	C/C(=N\OC(=O)c1cccc(Cl)c1)c1sc(C)nc1C	-12	7.2%	9	10%	5	-15	1.7
3	CCOc1ccc(CCNC(=O)c2cc(C)nn2-c2ccccc2)cc1	-1	0.7%	-3	19%	7	0	-5.3
4	O=C(NCC1CCCN1S(=O)(=O)c1cccs1)c1c(F)cccc1F (stereo unspecified)	-4	0.7%	7	/	-5	22	14
5	COc1cccc(CN2CCC2(C)C(=O)NCCc2ccccn2)c1OC (stereo unspecified)	-5	1.6%	5	/	2	/	3.4
6	CCNc1nc(NC(C)C)nc(N(C#N)Cc2ccccc2)n1	-2	-2.4%	7	-16%	6	-14	-0.5
7	CCOC(=O)c1sc(Nc2cccc(Cl)c2)nc1C	-6	2.0%	-6	-7%	-2	/	8.5
8	COc1ccc(CN2CCc3cc(OC)c(OC)cc3C2)cc1O	-86	6.5%	15	-15%	-12	-6	-5.0
9	Cc1ccc(C)c(S(=O)(=O)N2CCN(CC(=O)Nc3ccc4c(c3)OCCO4)CC2)c1	-10	/	-5	16%	-2	-3	-0.3
10	Cc1c(CN2CCC(CO)(CC3CCCCO3)CC2)cnn1C (stereo unspecified)	1	-0.5%	4	-18%	2	2	-9.4

# An excerpt from above in order of heavy-atom count, largest number first.
entry	smiles	D2 PAM	PINK1 modulator	Six1-Eya2 inh	Sfp inh	CtBP-E1A inh	TRPV1 potentiator	D2 ag
1	Cc1c(C(c2ccc(C(=O)O)cc2)c2c(C)n(C)n(-c3ccccc3)c2=O)c(=O)n(-c2ccccc2)n1C	-1	-1.1%	0	9%	7	6	-0.4
9	Cc1ccc(C)c(S(=O)(=O)N2CCN(CC(=O)Nc3ccc4c(c3)OCCO4)CC2)c1	-10	/	-5	16%	-2	-3	-0.3
5	COc1cccc(CN2CCC2(C)C(=O)NCCc2ccccn2)c1OC (stereo unspecified)	-5	1.6%	5	/	2	/	3.4
3	CCOc1ccc(CCNC(=O)c2cc(C)nn2-c2ccccc2)cc1	-1	0.7%	-3	19%	7	0	-5.3
4	O=C(NCC1CCCN1S(=O)(=O)c1cccs1)c1c(F)cccc1F (stereo unspecified)	-4	0.7%	7	/	-5	22	14
8	COc1ccc(CN2CCc3cc(OC)c(OC)cc3C2)cc1O	-86	6.5%	15	-15%	-12	-6	-5.0
10	Cc1c(CN2CCC(CO)(CC3CCCCO3)CC2)cnn1C (stereo unspecified)	1	-0.5%	4	-18%	2	2	-9.4
2	C/C(=N\OC(=O)c1cccc(Cl)c1)c1sc(C)nc1C	-12	7.2%	9	10%	5	-15	1.7
7	CCOC(=O)c1sc(Nc2cccc(Cl)c2)nc1C	-6	2.0%	-6	-7%	-2	/	8.5

# Next section
entry	smiles	D2 PAM	PINK1 modulator	Six1-Eya2 inh	Sfp inh	CtBP-E1A inh	TRPV1 potentiator	D2 ag
11	Cc1cc(OCC(=O)NC(Cc2ccc(Cl)cc2)C(=O)O)c2c(C)cc(=O)oc2c1 (stereo unspecified)	-6	0.8%	-6	28%	4	-4	-4.6
12	CN(C)c1ccc(CNC(=O)C2(C)Cc3c(-c4ccc(N(C)C)cc4)ccnc3O2)cc1 (stereo unspecified)	-8	-0.1%	?	/	?	/	0.9
13	NC(=O)CC(NC(=O)c1ccc(Br)cc1)c1ccc(NCc2ccc(F)cc2)c([N+](=O)[O-])c1 (stereo unspecified)	-12	23%	0	-6%	0	-6	-0.5
14	CCOC(=O)CNC(=O)C(CO)NC(=O)OCc1ccccc1 (stereo unspecified)	-4	0.3%	13	11%	7	-11	-1.5
15	COc1cccc(C(O)c2nc(-c3cccc(CO)c3)cs2)c1 (stereo unspecified)	4	-0.6%	0	/	-12	/	-2.7
16	N#Cc1c(Cl)nc(-c2ccncc2)nc1-c1ccccc1	-16	-0.8%	9	-5%	/	2	-0.8
17	CCCN(CCC)CCCNc1ccc2nnc(-c3ccc(F)cc3)n2n1	3	0.7%	-9	17%	-19	7	-30
18	CCOc1ccc2nc(NC(=O)Cc3cccs3)sc2c1	21	-0.3%	6	1%	-5	16	0.1
19	COC(=O)CN1C(=O)Nc2ccc(Cl)cc2C1c1ccccc1 (stereo unspecified)	-8	0.9%	-7	-1%	0	-12	7.1
20	Cc1ccc(NC(=O)CSc2nnc(C3CCCCC3)n2N)cc1F	-6	1.0%	-2	6%	0	-12	-3.3
21	O=C(Nc1nnc(-c2ccccc2)s1)c1ccccc1F	-1	2.2%	1	6%	-15	-22	-6.0
22	Oc1ccc(/C=N\Nc2nncc(-c3ccccc3)n2)cc1	-10	3.0%	-25	-13%	?	-2	6.3
23	Cn1c(=O)c2[nH]c(C3CCC3)nc2n(C)c1=O	-2	-4.9%	12	/	-4	/	-3.0
24	Cc1ccc(N(CC(O)CON=C2c3ccccc3-c3ccccc32)S(C)(=O)=O)cc1 (stereo unspecified)	-7	/	0	-13%	9	-3	-0.4
25	CCOC(=O)C1=C(C)N(CCCCCC(=O)O)C(=O)NC1c1ccccc1Cl (stereo unspecified)	2	-0.2%	-3	?	-2	-7	-7.0
26	c1csc(CNCc2ccncc2)c1	-3	3.6%	-4	0%	5	4	0.2
27	Cc1cccc(NC(=O)COc2nsnc2N2CCOCC2)c1	-10	0.2%	-6	12%	5	-16	-3.1
28	CCCCNC(=S)N/N=C/c1ccc(OCC(=O)Nc2c(C)cc(C)cc2C)c(OC)c1	-1	13%	-1	6%	0	19	1.7
29	COc1cccc(CSc2nccn2C)c1	-26	-1.8%	5	6%	/	-1	0.5
30	O=C1C2C(C(=O)N1/N=C/c1ccc(N3CCCCC3)o1)C1C=CC2C12CC2 (stereo unspecified)	-15	-0.7%	9	1µM*	-8	-11	-0.9

# Molecules listed so far that contain an aryl thioether with sulfur outside any ring:
entry	smiles	D2 PAM	PINK1 modulator	Six1-Eya2 inh	Sfp inh	CtBP-E1A inh	TRPV1 potentiator	D2 ag
20	Cc1ccc(NC(=O)CSc2nnc(C3CCCCC3)n2N)cc1F	-6	1.0%	-2	6%	0	-12	-3.3
29	COc1cccc(CSc2nccn2C)c1	-26	-1.8%	5	6%	/	-1	0.5

# Next part.
entry	smiles	D2 PAM	PINK1 modulator	Six1-Eya2 inh	Sfp inh	CtBP-E1A inh	TRPV1 potentiator	D2 ag
31	COC(=O)c1cc(NC(=O)CC(=O)c2cccc(N)c2)cc(C(=O)OC)c1	-5	2.3%	-1	/	-9	/	-2.5
32	CCC(C)NS(=O)(=O)c1ccc(NC(C)=O)cc1 (stereo unspecified)	-1	2.3%[38.3 µM]	2	16%	-3	1	-2.0
33	CCCCC(=O)C1CCN(Cc2ccccc2)CC1	-13	-1.2%	4	18%	8	-10	3.5
34	O=C(Nc1ccc2c(c1)CCC2)c1cccc(S(=O)(=O)N2CCN(c3ccccc3)CC2)c1	10	-3.5%	-8	0%	-20	3	-0.4
35	O=C(O)c1ccccc1-c1cc2ccccc2[nH]1	2	1.4%	12	/	6	/	-4.4
36	CCN(CC)c1ccc(S(=O)(=O)N2CCOCC2)cc1NC(=O)CSc1nncn1C	-3	0.2%	8	/	2	-3	-4.6
37	Cc1ccc(C(=O)CSC2=C(C#N)C(c3ccco3)C3=C(CC(C)(C)CC3=O)N2)cc1 (stereo unspecified)	-1	-2.7%	-3	-28%	-12	-1	-1.6
38	COc1ccccc1NC(=O)NCC1CC1(Cl)Cl (stereo unspecified)	-10	7.0%	8	4%	1	14	-4.1
39	O=C(COCC(=O)N/N=C/c1ccc(F)cc1)N/N=C/c1ccc(F)cc1	-3	-1.1%	-1	5%	12	8	-1.4
40	O=C(NC1CCCCC1)C(c1ccncc1)N(C(=O)c1csnn1)c1cccc(F)c1 (stereo unspecified)	-7	2.0%	-9	11%	0	0	-3.2
41	CN(C)CCNc1c2c(nc3ccccc13)CCC2	-34	-0.2%	3	0%	/	2	-4.9
42	Cc1ccccc1NC(=O)CN(C)S(=O)(=O)c1ccc(-c2ccc(=O)[nH]n2)s1	-6	0.5%	-12	10%	/	11	-5.3
43	Cc1onc(-c2c(F)cccc2Cl)c1C(=O)N1CCSCC1	-1	-0.8%	-4	9%	8	?	-2.5
44	C=CCn1c(COc2ccc(F)cc2)nnc1SCC(=O)Nc1cccc(S(N)(=O)=O)c1	-10	1.7%	1	10%	4	5	0.2
45	CC1=NCC(C)c2ccccc21 (stereo unspecified)	-14	4.0%	3	/	-14	/	-6.0
46	Cc1cc(NC(=O)COc2cccnc2[N+](=O)[O-])no1	1	1.4%	6	19%	4	4	2.0
47	O=C(Nc1nccs1)c1ccc2c(c1)OCO2	-1	4.4%	1	6%	2	-2	4.5
48	Cn1c(N)c(C(=O)NCc2ccccc2Cl)sc1=S	-9	18%	-3	-29%	-1	-7	-0.2
49	O=C(Nc1cc(S(=O)(=O)N2CCOCC2)ccc1N1CCCCC1)c1ccccc1Br	3	-0.5%	-11	/	-2	/	-3.0
50	S=C(NCc1ccccc1)NCc1cccc(Cl)c1	-6	1.0%	7	14%	-9	-4	-0.8
51	CCOC(=O)C1(Cc2ccc(O)cc2)NC(c2ccco2)C2C(=O)N(c3ccccc3F)C(=O)C21 (stereo unspecified)	1	-2.7%	-3	-8%	-13	8	-0.6
52	Cc1ccc(NS(=O)(=O)c2ccc(C)c(C(=O)Nc3ccc(S(=O)(=O)Nc4onc(C)c4C)cc3)c2)cc1	-3	0.3%	-11	/	-5	/	-2.1
53	OC1(c2cccc(C(F)(F)F)c2)CCN(c2ncnc3c2[nH]c2ccc(F)cc23)CC1	-29	25%	?	19%	?	-6	4.7
54	CN(C)C(CNC(=O)c1cc2ccccc2o1)c1ccco1 (stereo unspecified)	-5	1.5%	5	/	5	/	-0.4
55	O=C(CCCN1C(=O)C(c2ccccc2)Oc2cccnc21)NCc1ccccc1Cl (stereo unspecified)	1	5.6%	2	-4%	3	-1	-0.6
56	COc1ccc(C(=O)OCC(=O)N2C(C)CCCC2C)cc1S(=O)(=O)N1CCOCC1 (stereo unspecified)	-16	-1.6%	11	/	-15	/	-2.7
